Screening data (PubChem)
KCNQ2 inh: KCNQ2 channel blockers in CHO-K1 cells – cell-based, FluxOR thallium flux, B-score, primary screen (AID 2156); O88943; 20 min; active compounds read low; only compounds with negative scores are shown here; some inactives read as strong as hits; B-score at 10 µM; hit rate 1.1% among 310,000;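 active = fluorescence ratio B-score at most minus 3 library SDs, with starting brightness B-score within 2 library SDs, cut at about -5.5 in these data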
Target sequence (O88943 whole entry, looked up): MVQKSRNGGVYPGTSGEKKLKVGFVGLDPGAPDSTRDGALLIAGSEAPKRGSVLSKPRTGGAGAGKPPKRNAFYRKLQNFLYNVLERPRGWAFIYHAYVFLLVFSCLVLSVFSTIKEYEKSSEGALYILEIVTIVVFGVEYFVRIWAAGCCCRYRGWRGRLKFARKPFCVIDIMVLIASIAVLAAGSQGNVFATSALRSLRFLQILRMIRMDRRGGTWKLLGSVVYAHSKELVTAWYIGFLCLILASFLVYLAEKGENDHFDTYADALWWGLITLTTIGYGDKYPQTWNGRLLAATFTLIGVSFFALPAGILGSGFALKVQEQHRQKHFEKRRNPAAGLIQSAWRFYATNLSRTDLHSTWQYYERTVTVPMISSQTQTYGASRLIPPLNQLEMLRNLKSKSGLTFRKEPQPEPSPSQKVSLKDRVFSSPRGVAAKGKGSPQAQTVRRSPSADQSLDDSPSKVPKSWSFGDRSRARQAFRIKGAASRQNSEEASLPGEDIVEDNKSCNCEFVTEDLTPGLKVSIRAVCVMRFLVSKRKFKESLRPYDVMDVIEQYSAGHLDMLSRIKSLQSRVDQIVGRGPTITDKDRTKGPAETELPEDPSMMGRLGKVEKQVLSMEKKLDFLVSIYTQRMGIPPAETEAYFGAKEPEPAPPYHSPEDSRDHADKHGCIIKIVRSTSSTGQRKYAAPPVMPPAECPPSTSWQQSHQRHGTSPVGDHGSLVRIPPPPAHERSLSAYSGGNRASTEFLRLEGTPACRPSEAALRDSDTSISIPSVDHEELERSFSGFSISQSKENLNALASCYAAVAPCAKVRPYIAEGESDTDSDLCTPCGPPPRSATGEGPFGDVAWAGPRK
KCNQ2 inh baseline: further read-out of KCNQ2 inh, marked with its call; B-score; measured here: initial fluorescence intensity artifact check;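 brightness before thallium and not channel activity; 0 = typical well and far values either way flag optical interference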
Numbers without * were called inactive; i = inactive. Not all compounds are listed; rates above refer to the full screens.

SMILES	KCNQ2 inh	KCNQ2 inh baseline
CCOC(=O)N1CCN(C(=O)CNC(=O)Cn2cnc3ccccc3c2=O)CC1	i	0.04
Cc1cc(C(=O)NCC(=O)OCC(=O)NCCc2ccccc2)ccc1[N+](=O)[O-]	i	-0.28
COCCSc1nnc(NC(=O)CSCc2ccccc2)s1	i	0.48
C#CCSc1nnc(-c2ccc(C)cc2)o1	i	-1.11
COc1ccc(S(=O)(=O)N/N=C(/C)c2ccncc2)cc1	i	-0.25
Cc1ccc(C)n1NC(=O)c1ccccc1[N+](=O)[O-]	i	0.56
CCOc1cccc(-c2nnc3sc(C4CCCCC4)nn23)c1	i	-0.5
COc1ccc(-c2cc(C(=O)OCc3ccccn3)c3ccccc3n2)cc1	i	-0.49
CCCCN(C(=O)c1cccc(S(=O)(=O)N2CCN(Cc3ccccc3)CC2)c1)c1ccccc1	i	-0.5
Cc1ccc(C)n1-c1ccc(C(=O)N2CCOCC2)cc1	i	0.87
COc1ccnc2c1c(=O)n(Cc1ccc(F)cc1)c(=O)n2C	i	-1.57
Cc1ccc(NC(=O)COc2ccc(CCO)cc2-n2nc3ccccc3n2)cc1C	i	2.9
CN(C)c1ccc(CNn2cnnc2SCc2ccccc2F)cc1	i	0.63
NC(=S)Nc1ccc(Cl)cc1Cl	i	-0.16
O=C(Nc1nc2ccc(F)cc2s1)Oc1ccccc1	i	-0.02

An excerpt taken from the entries so far, as a working copy:
SMILES	KCNQ2 inh	KCNQ2 inh baseline
COc1ccc(S(=O)(=O)N/N=C(/C)c2ccncc2)cc1	i	-0.25
Cc1ccc(C)n1NC(=O)c1ccccc1[N+](=O)[O-]	i	0.56

Continuation:
SMILES	KCNQ2 inh	KCNQ2 inh baseline
CC(C)(C)NC(=O)NC(=O)COC(=O)CNC(=O)c1cc(Cl)cc([N+](=O)[O-])c1	i	0.12
c1ccc(CC2CCN(C3=Nc4cccc5cccc3c45)CC2)cc1	-5.96*	-0.42*
COc1ccc2c(c1)cc(C(=O)N/N=C/c1c(O)c(C(=O)O)cc3ccccc13)n2C	i	-1.93
Cc1ccc(C(=O)N/N=C\c2cc(Br)c(Br)o2)cn1	i	1.08
CCOC(=O)c1cc(C)n(-c2ccccc2)c1C	i	0.54
Cc1ccn2c(C(=O)NN=C3CCN(C)CC3)c(C)nc2c1	i	0.93
Fc1ccc(NC(=S)Nc2ccc3nccnc3c2)cc1	i	-0.19
COc1ccc(N2CCN(CCCNC(=O)CC3Oc4ccc(C)cc4NC3=O)CC2)cc1 (stereo not drawn)	i	-2.25
COc1cccc(/C=C/C(=O)NNC(=O)CCN2CCN(Cc3ccccc3)CC2)c1	i	-0.68
O=C(CSc1nc2c(c(=O)n1-c1ccc(Br)cc1)SCC2)Nc1nccs1	i	-0.7
CCOC(=O)CC1C(=O)NCCN1C(=O)c1ccc(Cl)c(Cl)c1 (stereo not drawn)	i	-0.9
O=[N+]([O-])c1ccc2nc(NCCCO)nc(-c3ccccc3)c2c1	i	1.23
Cc1cc(C)n2nc(CCc3ccccc3)nc2n1	i	1.28
Cc1onc(-c2ccccc2)c1C(=O)N1CCN(c2ncccn2)CC1	i	0.92
CCOC(=O)CNC(=O)CSc1nnc(-c2c[nH]c3ccccc23)n1CC	i	0.36
O=C(COC(=O)CC12CC3CC(CC(C3)C1)C2)Nc1ncc(Cl)cc1Cl	i	-1.13
CC1(C)CC(=O)C2=C(C1)Oc1nc3ccccc3cc1C2C(C#N)C#N (stereo not drawn)	i	0.78
CCCCNC(=O)c1cc(C)no1	i	0.78
O=C(Cn1[nH]c(=O)c2ccccc2c1=O)OCC(=O)c1ccc(Br)cc1	i	0.27
CCOc1nc(-c2ccccc2Cl)ccc1C#N	i	1.07
CC(C)c1cccc(C(C)C)c1NC(=O)CNCc1ccccc1F	i	0.18
Cc1cc2nc(SCCOC(=O)Nc3ccccc3)nc(C)c2cc1C	i	-1.16
CN(C)/C=N/c1nc2nccc(-c3cccs3)n2n1	i	0.76
O=C1CC(NS(=O)(=O)c2ccc3ccccc3c2)CN1c1ccccc1 (stereo not drawn)	i	0.67
Cn1nnnc1SCC(=O)Nc1ccccc1Cl	i	-0.26
Cc1cc(=O)[nH]c(SC(C)C(=O)Nc2cccc3ccccc23)n1 (stereo not drawn)	i	-1.23
COc1cccc(CN(C)CC(=O)Nc2ccccc2N2CCOCC2)c1OC	i	-1.68
Cc1ccc(S(=O)(=O)N2CCN(C(=O)C3CSC4(C)CCC(=O)N34)CC2)cc1C (stereo not drawn)	i	0.45
C=CCc1cc(C)ccc1OCCOCCn1ccnc1	i	4.8
O=c1nc(Nc2ccc(Br)cc2)sc2ccc([N+](=O)[O-])cc12	i	-0.04
O=C(CCCc1nc2ccccc2s1)NCc1ccccc1	i	1.42
COc1cccc(NC(=O)CN2CCc3ccccc3C2)c1	i	-1.92
O=C(N1CCOCC1)N1CCN(c2ccc(F)cc2)CC1	i	-1.22
CC(NCC(=O)NCCc1ccc(S(N)(=O)=O)cc1)c1ccc(F)cc1 (stereo not drawn)	i	0.31
CC(C)(C)CC(C)(C)NC(=O)c1ccccc1	i	-0.34
Cc1ccc(S(=O)(=O)N2CCN(C(=O)c3cccc(F)c3)CC2)cc1	i	-1.58
COc1ccc(NC(=O)COc2cccc(C(F)(F)F)c2)cn1	i	2.96
COc1cccc(/C=N/NC(=O)CSc2ccccc2C)c1OC	i	-0.53
Nc1nc(SCC(=O)NCc2ccccc2)n[nH]1	i	0.14
CCOc1ccc(N(CC)S(=O)(=O)c2ccc3c(c2)n(C)c(=O)c(=O)n3C)cc1	i	0.47
C#CCn1c(-c2cccs2)nc2ccccc21	i	-0.82
CCCCC(=O)Oc1c(S(=O)(=O)c2ccc(C)cc2)c(C)nn1C(C)(C)C	i	0.85
C/C(=C1/SC(N2CCOCC2)=NC1=O)c1ccc(Cl)cc1	i	1.27
CN(C)Cc1c(O)ccc2c(=O)c(-c3ccccc3Cl)coc12	i	0.96
Cc1noc(NS(=O)(=O)c2ccc(N/C=C/C(=O)c3ccccc3)cc2)c1C	i	-1.61

New compounds follow
| SMILES | KCNQ2 inh | KCNQ2 inh baseline |
| --- | --- | --- |
| O=[N+]([O-])c1ccc(-[n+]2nc(-c3ccccc3)nn2-c2ccccc2)cc1 | i | -0.67 |
| NC(=S)NC(=O)c1ccccc1 | i | -1.65 |
| N/C(=N\OC(=O)CCn1cccc(C(F)(F)F)c1=O)c1ccc(Cl)cc1 | i | -0.03 |
| O=C1CCC(C(=O)OCc2nnc(-c3ccc(Cl)cc3)o2)=NN1 | i | -0.15 |
| O=C(CCNC(=O)C1CCN(S(=O)(=O)c2ccc(F)cc2)CC1)NC1CC1 | i | -1.19 |
| O=C(CCCCCNC(=O)c1ccccc1)N/N=C/c1ccco1 | i | 0.15 |
| O=C(CN1CCN(C(c2ccccc2)c2ccccc2)CC1)N1CCN(c2ccccc2)CC1 | i | -0.96 |
| CCOc1ccccc1NC(=O)CSc1nc2ccccc2nc1N1CCCC1 | i | -1.53 |
| CCC(C)c1ccc(C2C3=C(Nc4nc(N)[nH]c(=O)c42)c2ccccc2C3=O)cc1 (stereo not drawn) | i | 0.56 |
| FC(F)(F)c1cc(-c2ccccc2)nc(N2CCCCCC2)n1 | i | 0.93 |
| Cc1nc2c(ncn2-c2ccccc2)c(=O)n1NC(=O)CN1CCCC1 | i | -1.05 |
| COc1ccccc1CCC(=O)Nc1cc(S(=O)(=O)N2CCCCC2)ccc1N1CCN(C)CC1 | i | -0.89 |
| O=c1[nH][nH]c(C(F)(F)F)c1C=NCc1cccc(Cl)c1 | i | 0.06 |
| Cn1c(N2CCN(S(=O)(=O)c3ccc(F)cc3)CC2)nc2ccccc21 | i | -1.09 |
| COC(=O)CN1C(=O)COc2ccc(S(=O)(=O)N3CCOCC3)cc21 | i | -1.3 |
| O=C(/C=C/Nc1ccc(F)c(Cl)c1)c1ccccc1 | i | -0.16 |
| CSc1cccc(NC(=O)N2CCc3ccc(NC(=O)c4ccccn4)cc3C2)c1 | i | -0.03 |
| CCC(C)(C)NC(=O)Cc1ccc(F)cc1 | i | 0.15 |
| CCOC(=O)c1cc(OC(=O)c2ccccc2)n(-c2ccccc2)n1 | i | -1.15 |
| O=C(/C=C/c1ccc(Cl)cc1)NC(=S)NN1CCCCC1c1cccnc1 (stereo not drawn) | i | 1.94 |
| Cc1cc(-c2ccc(Cl)cc2)c2cnn(C(C)C)c2n1 | i | 0.32 |
| CCC(C)c1ccc(NS(=O)(=O)c2c(C)[nH]c(=O)[nH]c2=O)cc1 (stereo not drawn) | i | -0.85 |
| O=C(c1ccc2c(=O)n3c(nc2c1)CCCCC3)N1CCN(c2ccccc2)CC1 | i | -1.05 |
| COc1ccc(-n2nc3c(c2NC(=O)c2cc4ccccc4o2)CS(=O)(=O)C3)cc1 | i | -1.96 |
| CC1(C)C2CC=C(/C=N/NC(=S)Nc3cccnc3)C1C2 (stereo not drawn) | i | -1.94 |
| O=C(CCn1c(=O)sc2ccccc21)Nc1nccs1 | i | -0.75 |
| CNC(=O)C1CCN(S(=O)(=O)c2c(C)noc2/C=C/c2ccc(OC)cc2)CC1 | i | 1.98 |
| COc1cc(C(=O)N/N=C/c2ccc(OC(=O)c3ccccc3Cl)cc2)ccc1O | i | -1.65 |
| COC(=O)c1ccccc1NC(=S)NC(=O)COc1ccc(C)cc1 | i | -0.02 |
| COCCNC(=S)N(CCc1c(C)[nH]c2ccc(C)cc12)Cc1cc(OC)c(OC)c(OC)c1 | i | 1.38 |
| CN(Cc1nc2ccccc2c(=O)[nH]1)c1ccccc1 | i | 2.13 |
| Cc1ccc(-c2cc(C(=O)Nc3ccc(S(=O)(=O)Nc4onc(C)c4C)cc3)c3ccccc3n2)cc1 | i | -0.01 |
| O=C(CCn1c(=O)c2cccn2c2cccnc21)N1CCN(c2cccc(Cl)c2)CC1 | i | -0.7 |
| CCOC(=O)N1CCC(NC(=O)C(NS(=O)(=O)c2cccc3nsnc23)c2ccccc2)CC1 (stereo not drawn) | i | -1.14 |
| CCN(CC)S(=O)(=O)c1cccc(-c2nnc(SCC(=O)c3cc(C)n(C4CC4)c3C)o2)c1 | i | -1.76 |
| Cc1cc(=O)oc2c1c(C)nn2-c1cccc(Cl)c1 | i | -0.58 |
| CC(C)Oc1ccc(C(=O)CCN2CCCCC2)cc1 | i | 1.33 |
| Cc1ccc(-c2nn(C)c(=O)c3ccccc23)cc1CNS(C)(=O)=O | i | -0.85 |
| O=C(Nc1ccc(F)cc1)C(Cc1ccccc1)n1cccc1 (stereo not drawn) | i | 0.53 |
| CSc1ccc(CN2CCC(Oc3ccc(C(=O)N4CCCC4)cc3)CC2)cc1 | i | 0.11 |
| c1ccc(CSc2nc3ccccc3[nH]2)cc1 | i | 0.13 |
| COc1ccccc1CNc1ccc(Br)cn1 | i | 1.67 |
| CCOC(=O)C(C)Sc1ncc(OC)c(Sc2ccc(Cl)cc2)n1 (stereo not drawn) | -7.96* | -1.63* |
| COc1ccc(C(=O)N2CCCC(c3nc(-c4cccs4)no3)C2)cc1 (stereo not drawn) | i | -1.47 |
| CC(C)(C)c1nc(NCC2CCCO2)c2nnn(Cc3ccccc3)c2n1 (stereo not drawn) | i | 0.08 |
| Cc1cc(C)n(Cc2ccc(C(=O)Nc3cccc(Br)c3)o2)n1 | i | 1.97 |
| COC(=O)c1c(NC(=O)c2cccs2)sc2c1CCCC2 | i | -0.05 |
| O=C(C1CCN(S(=O)(=O)c2cccs2)CC1)N1CCN(c2ccccc2)CC1 | i | -1.23 |

Exported with values under each structure: part of the list above.
Each structure is followed by: KCNQ2 inh, KCNQ2 inh baseline
CC1(C)CC(=O)C2=C(C1)Oc1nc3ccccc3cc1C2C(C#N)C#N (stereo not drawn)
→ i, 0.78
c1ccc(CSc2nc3ccccc3[nH]2)cc1
→ i, 0.13

(continued)
| SMILES | KCNQ2 inh | KCNQ2 inh baseline |
| --- | --- | --- |
| COC(=O)C1=NN(C(C)(C)CC(C)=O)C2C(=O)N(C3CCCCC3)C(=O)C12 (stereo not drawn) | i | -1.11 |
| CCCCC(CC)C(=O)Nc1ccccc1C(=O)NC(C)C (stereo not drawn) | i | 1.73 |
| O=C(NC1CC1)C1=COCCO1 | i | 1.54 |
| O=C(O)CCC(=O)Nc1ccc(Oc2ncnc3cc(Cl)ccc23)nc1 | i | -1.15 |
| COC1(c2cc(-c3ccccc3)nc(N)n2)CCCCC1 | i | 2.76 |
| COc1ccc(OCC(=O)N2CCN(c3nnc(-c4ccc(C)cc4)c4ccccc34)CC2)cc1 | i | 2.19 |
| O=C(CCC(=O)OCc1ccc(Cl)cc1)Nc1cccc([N+](=O)[O-])c1 | i | -0.44 |
| CCCCC1CC(C)(C(=O)CSc2nc3ccccc3s2)OC1=O (stereo not drawn) | i | 0.55 |
| CC1=C(C(=O)NCc2ccc3c(c2)OCO3)C2(CCC(C)CC2)OC1=O (stereo not drawn) | -9.37* | 0.36* |
| Cc1cc(C)c2c(N)c(C(=O)Nc3ccccc3Cl)sc2n1 | i | 0.55 |
| C=CCc1cccc2cc(C(=O)N3CCN(C(=O)OCC)CC3)c(=O)oc12 | i | 2.21 |
| Cn1ccnc1Sc1cc(Cl)ccc1[N+](=O)[O-] | i | -1.23 |
| O=C(NC(=S)Nc1cccc(Cl)c1N1CCOCC1)c1cccs1 | i | 0.97 |
| Cc1ccc2cc(CN(Cc3ccco3)C(=O)c3ccco3)c3nnnn3c2c1 | i | -0.57 |

In the list so far, these have a thiophene ring, fused or not:
| SMILES | KCNQ2 inh | KCNQ2 inh baseline |
| --- | --- | --- |
| CN(C)/C=N/c1nc2nccc(-c3cccs3)n2n1 | i | 0.76 |
| C#CCn1c(-c2cccs2)nc2ccccc21 | i | -0.82 |
| COc1ccc(C(=O)N2CCCC(c3nc(-c4cccs4)no3)C2)cc1 (stereo not drawn) | i | -1.47 |
| COC(=O)c1c(NC(=O)c2cccs2)sc2c1CCCC2 | i | -0.05 |
| O=C(C1CCN(S(=O)(=O)c2cccs2)CC1)N1CCN(c2ccccc2)CC1 | i | -1.23 |
| Cc1cc(C)c2c(N)c(C(=O)Nc3ccccc3Cl)sc2n1 | i | 0.55 |
| O=C(NC(=S)Nc1cccc(Cl)c1N1CCOCC1)c1cccs1 | i | 0.97 |
